D2 PAM = human D2 receptor positive allosteric modulation; potentiation, % (test concentration not listed); AID 624464; 0.23% of 360,000 active; DiscoveRx D2 beta-arrestin cells, luminescence, 90 min; 100% = 57 uM dopamine signal; active = potentiation of 50% or more; inconclusive = 30% to 50%; inactive = 30% or less;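 also: compound concentration not given in the record; tested on top of an EC20 dose of dopamine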
Target sequence (P14416 whole entry, looked up): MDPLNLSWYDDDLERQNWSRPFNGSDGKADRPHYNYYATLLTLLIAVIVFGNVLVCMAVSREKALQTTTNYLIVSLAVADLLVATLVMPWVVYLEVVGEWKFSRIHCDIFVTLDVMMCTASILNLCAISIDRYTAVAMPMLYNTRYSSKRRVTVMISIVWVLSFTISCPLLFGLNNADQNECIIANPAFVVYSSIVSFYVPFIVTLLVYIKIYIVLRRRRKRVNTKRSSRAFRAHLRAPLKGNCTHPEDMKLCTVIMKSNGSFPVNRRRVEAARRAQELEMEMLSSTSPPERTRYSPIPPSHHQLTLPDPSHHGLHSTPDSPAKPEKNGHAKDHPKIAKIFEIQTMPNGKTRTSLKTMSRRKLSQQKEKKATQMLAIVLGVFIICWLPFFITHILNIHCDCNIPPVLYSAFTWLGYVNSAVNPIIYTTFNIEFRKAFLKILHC
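PathHunter beta-arrestin assay in DiscoveRx D2 cells. Compounds were added with an EC20 of dopamine (50 nM final) for 90 min at 37 deg C. Luminescence was read 1 h after detection reagent, with 57 uM dopamine as the EC100 control.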
D2 ag = human D2 receptor agonism in beta-arrestin assay; P14416; DiscoveRx PathHunter D2 beta-arrestin, luminescence, 90 min; 100% = 57 uM dopamine signal; activation, % (test concentration not listed); 0.084% of 360,000 active; AID 624465; in the data active = activation above about 40%; inconclusive = about 15% to 40%; inactive = below about 15%; also: compound concentration not given in the record; the text of the record calls up to 30% inactive
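DiscoveRx PathHunter D2 beta-arrestin cells (2,100/well) attached overnight, then compound-stimulated 90 min at 37 C in HBSS/10 mM HEPES/0.1% Tween-20 buffer; beta-galactosidase complementation read by luminescence after 1 h at ambient temperature. Dopamine 57 uM final (EC100) as control.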
PINK1 expr mod = changes PINK1 expression | Potency, µM (highest dose often 76.6 µM), for the others: at the top dose activation (PINK1 increase), hits mostly activators | PINK1 immunofluorescence, high-content cytometry, 24 h | AID 624263 | 0.2% of 410,000 active; active = well fitted activation curve with a large enough effect; inconclusive = small, poorly fitted or top-dose-only effect; inactive = flat fitted curve, though single readings scatter; cell line not stated here;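 also: potency is read from the fitted curve at half-maximal effect; % of control where 0% means no effect; nearly all actives have a fitted effect of over 65% in size; a mitochondrial uncoupler was the plate control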
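Readout is PINK1 immunofluorescence, quantified alongside mitochondrial, cell and nuclear markers by laser-scanning microplate cytometry. Cells from a stable line were exposed to compound titrations (5 concentrations) for 24 hours, with CCCP controls.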
Six1-Eya2 inh = Six1/Eya2 interaction inhibition; Q15475+O00167; AlphaScreen GST-Six1/His-Eya2 binding, biochemical; stronger effect = lower value; control for the full effect not named in the record; activity change, % (concentration not given with the values); 0.56% of 360,000 active; AID 651725; in the data active = activity change below about -65%; inconclusive = about -30% to -65%; inactive = above about -30%; also: % is scaled to controls: 0 for no effect and ±100 for the full control effect
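AlphaScreen with GST-Six1 and His-Eya2 (5X mix: 250 nM and 500 nM), glutathione donor and nickel acceptor beads; buffer 50 mM Tris pH 8.0, 300 mM NaCl, 1 mM TCEP; 1 h at 37 C in the dark.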
Sfp inh = blocks B. subtilis Sfp PPTase activity; Q9F4F7; Biochemical Sfp PPTase activity, qHTS; Potency, µM, for inactives: max response, negative = inhibition, hits mostly inhibitors; 3.5% of 310,000 active; AID 1490; active = well fitted inhibition curve with a large enough effect; inconclusive = small, poorly fitted or top-dose-only effect, or another doubt; inactive = no such curve, though single readings can be large or run the other way;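 also: the enzyme is Sfp with the accession as filed and its product quenches rhodamine fluorescence; potency is read from the fitted curve at half-maximal effect; 0% = enzyme reaction without inhibitor and -100% = no enzyme wells; top concentration of the series not given in the record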
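After 15 min at room temperature with compound, 15 nM Sfp received 5 uM rhodamine-CoA plus 12.5 uM BHQ-2-ybbR (50 mM Hepes pH 7.6, 10 mM MgCl2). Rate came from the fluorescence difference over 30 min, ex 525/em 598 nm.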
TRPV1 potentiator = potentiators of human vanilloid receptor 1 (TRPV1); TRPV1-expressing cells, Fluo-8 calcium influx, capsaicin EC20 potentiation; host cell line not named in the record; control for the full effect not named in the record; potentiation, % at 8.33 µM; 0.02% of 320,000 active; active means potentiation above 80%; inconclusive means 30% to 80%; inactive means below 30%; also: 0% is about no effect
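Cells expressing TRPV1 were dye-loaded with Fluo-8 and read kinetically: 10 s baseline, 3 min after compound (agonist portion), then 2 min after EC20 capsaicin (allosteric enhancer portion). Calcium-bound dye fluorescence at 480/520 nm.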
CtBP-E1A blk = CtBP/E1A binding inhibition | activity change, % (concentration not given with the values) | AlphaScreen GST-E1A/His-CtBP binding, 1536-well; stronger effect = lower value; control for the full effect not named in the record | 0.49% of 340,000 active; in the data active means activity change below about -65%; inconclusive means about -30% to -65%; inactive means above about -30%; also: % is scaled to controls: 0 for no effect and ±100 for the full control effect
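GST-E1A and His-tagged CtBP (125 nM each as 5X stock) were preincubated with pin-transferred compound for 2 h at 37 °C in the dark, then glutathione donor and nickel acceptor beads were added for 1 h before AlphaScreen reading.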
* marks the source's active call; other numbers are inactive results; ? = inconclusive; / = not tested or not shown; & = joins results of further samples.

SMILES	D2 PAM	D2 ag	PINK1 expr mod	Six1-Eya2 inh	Sfp inh	TRPV1 potentiator	CtBP-E1A blk
CC(C)(C)c1csc(NC2=NS(=O)(=O)c3ccccc32)n1	-12	-3.8	/	-12	15%	-3	-7
CCN1CCN(CCCNC(=O)C2CCN(c3nnc(-n4c(C)ccc4C)s3)CC2)CC1	-3	1.9	0.0%	-10	8%	5	-1
CC1CCC(NC(=O)CCn2ccc3cc(S(=O)(=O)N4CCCC4)ccc32)CC1 (stereo unspecified)	-9	8.5	1.8%	1	10%	-7	-10
COc1ccc(C(C[N+](=O)[O-])c2c(-c3ccccc3)cc3ccccn23)cc1OC (stereo unspecified)	-5	-3.0	8.9%	-14	-28%	5	-5
CCOC(=O)C1CCN(c2cc(C)nc3cc(-c4cccc(F)c4)nn23)CC1	-9	1.6	?	1	11%	?	7
O=C(CNC(=O)c1cccs1)OCC(=O)c1ccc([N+](=O)[O-])cc1	4	-0.9	1.7%	6	-12%	1	12
CNC(=O)NC(=S)NC(=O)c1ccc(OC)cc1	-22	-4.6	1.3%	-2	-22%	1	8
Fc1cccc(CNc2ncnc3cc(Cl)ccc23)c1F	-30	11	?	3	-22%	-3	/
COc1ccc(CN(C)C(=O)COC(=O)c2ccc3c(c2)OCO3)cc1OC	-5	-5.1	1.1%	9	9%	16	-2
CCCCCC1(C)NC(=S)N(c2ccccc2)N1 (stereo unspecified)	-7	-4.4	6.4%	5	40µM*	-5	-13
Cc1ccc(S(=O)(=O)N2CCCCC2CCNC(=O)C(=O)NCc2cccnc2)cc1 (stereo unspecified)	-19	-2.2	5.1%	0	/	11	8
CCOC(=O)C1=C(C)N=c2s/c(=C/c3cccc([N+](=O)[O-])c3O)c(=O)n2C1c1ccc(OC)cc1OC (stereo unspecified)	-2	-4.9	3.2%	-28	50µM*	6	?
Cc1cc(-c2ccccc2)nc2cc(C(=O)NCCCn3ccnc3)nn12	1	0.0	1.1%	-6	13%	-1	-1
CC1(C)CC2CC(C)(CN2Cc2c(O)ccc3ccccc23)C1 (stereo unspecified)	-3	-5.1	20%	3	-1%	4	/
N#CCc1nc2c3c4c(sc3ncn2n1)CCCC4	2	-3.0	-0.3%	-2	5%	23	/
Cn1cnc([N+](=O)[O-])c1S(=O)(=O)Oc1ccccc1	-24	-8.5	0.0%	-2	/	/	0
O=C(CSc1nc(-c2ccccc2)cc(C(F)(F)F)n1)c1cccc([N+](=O)[O-])c1	-1	0.1	4.6%	-2	-7%	0	-1
CCOC(=O)C1C2C=CC(CC2)N1c1ccccc1 (stereo unspecified)	-11	-2.3	3.3%	0	/	/	6
COc1cc(/C=N\Nc2nc3ccccc3[nH]2)cc(OC)c1OC	-6	-0.2	0.3%	-20	9%	9	-16
C[C@H](NC(=O)c1ccccc1)C(=O)Nc1nc(-c2ccccn2)cs1	3	3.5	0.8%	-84*	-14%	15	-81*
CCN1CCC(=NNC(=O)c2ccc(C)c([N+](=O)[O-])c2)CC1	-14	-0.5	1.4%	-3	-15%	-7	-4
COc1ccc(Cl)cc1NC(=O)CN(C)C(=O)Cn1cnnn1	-20	-4.9	-1.4%	1	/	/	14
C[C@@H](C(=O)O)[C@H]1C[C@]1(C)[C@H](NC(=O)OCc1ccccc1)c1ccccc1	-12	-2.4	-1.9%	0	8%&34%	-1	13
CCCC(=O)Nc1c(-c2ccccc2OC)c(=O)c2ccccc2n1C	-2	-6.0	-0.2%	14	17%	?	10
O=C(c1ccc2nc[nH]c2c1)N1CCN(c2cccc(C(F)(F)F)c2)CC1	-9	0.1	0.3%	-1	5%	2	-7

Reformatted bar-delimited: 2 of the compounds above
Structure | D2 PAM | D2 ag | PINK1 expr mod | Six1-Eya2 inh | Sfp inh | TRPV1 potentiator | CtBP-E1A blk
CCOC(=O)C1C2C=CC(CC2)N1c1ccccc1 (stereo unspecified) | -11 | -2.3 | 3.3% | 0 | / | / | 6
CCN1CCN(CCCNC(=O)C2CCN(c3nnc(-n4c(C)ccc4C)s3)CC2)CC1 | -3 | 1.9 | 0.0% | -10 | 8% | 5 | -1

Additional structures follow:
SMILES	D2 PAM	D2 ag	PINK1 expr mod	Six1-Eya2 inh	Sfp inh	TRPV1 potentiator	CtBP-E1A blk
C=CCn1c(SCC(=O)Nc2c(C)n(C)n(-c3ccccc3)c2=O)nnc1-c1ccncc1	5	-2.5	0.4%	1	/	/	7
CC1Sc2ccc(C(=O)OCc3ccccc3Cl)cc2NC1=O (stereo unspecified)	-11	1.0	3.9%	-1	/	-3	8
CCOc1ccc(C(=O)NCC(=O)N2CCN(c3ccccc3O)CC2)cc1	3	5.0	1.5%	2	-4%	-1	7
CC(C)c1ccc(CN2CCC(Oc3ccc(C(=O)N4CCCC4)cc3)CC2)cc1	-15	2.6	1.0%	0	-1%	-7	-3
O=C(NC(=S)N1CCOCC1)C12CCC3CC(CC(C3)C1)C2	-5	-3.6	-1.5%	-1	-29%	12	-17
CC1CN(C(=O)CN2C(=O)NC3(CCCC3)C2=O)C(=Nc2cccc(S(=O)(=O)N(C)C)c2)S1 (stereo unspecified)	-27	-2.9	3.0%	1	/	1	4
COc1ccc(C(=O)Nc2c(N)nc(SCC(=O)NCC3CCCO3)[nH]c2=O)cc1 (stereo unspecified)	-6	2.7	0.3%	7	-15%	24	-6
COC(=O)c1ccc2nc(-c3ccc4c(c3)OCO4)cn2c1	0	-2.8	8.0%	-3	7%	-2	-6
Cc1onc(-c2ccccc2)c1-c1nnc(COC(=O)c2ccc(F)cc2)o1	-3	-1.0	0.7%	13	/	/	0
COc1ccc(CN2CCN(C(C)C(=O)NC(C)c3ccc(F)cc3)CC2)cc1F (stereo unspecified)	-4	0.3	-1.6%	-12	-4%	-11	6
CCc1ccc(C(=O)NNc2ccc(F)cc2F)cc1	4	2.5	4.1%	-11	7%	-26	-2
O=C(NC1CCCCC1)C(c1ccc2ncccc2c1)N(Cc1ccco1)C(=O)c1ccc2c(c1)OCCO2 (stereo unspecified)	8	7.3	0.3%	-6	-1%	-13	-3
COc1ccc(CNC(=O)/C=C/c2ccc(OCCCF)cc2)cc1	-3	4.8	0.4%	7	-6%	/	-7
CCCc1nc2ccc(NC(=O)c3cccs3)cc2c(=O)n1Cc1ccc(Cl)cc1	-8	-1.8	0.5%	-2	15%	4	/
COc1ccccc1C1/C(=C(\O)c2ccc3c(c2)OCCO3)C(=O)C(=O)N1CCCn1ccnc1 (stereo unspecified)	-8	-5.8	-0.8%	3	-2%	14	3
CC1(C(=O)NCc2ccccc2Br)CCN1C(=O)C1(c2ccc(Cl)cc2)CC1 (stereo unspecified)	-4	-1.7	-0.8%	5	/	/	5
COc1cc(/C=N/N2C(C)CCCC2C)cc(OC)c1O (stereo unspecified)	-6	7.2	0.1%	8	?	13	/
c1ccc(-c2nc(N3CCCC3)nc3ccccc23)cc1	-7	-1.1	8.7%	14	40µM*	-1	48
CCOC(=O)c1c(C)[nH]c(C=O)c1Cc1cccc(Cl)c1	-5	2.6	2.7%	5	4%	-16	1
CC(C)(C)NC(=O)C1CCC(CNS(=O)(=O)c2cccc3nsnc23)CC1 (stereo unspecified)	-11	7.3	-0.6%	4	21%	-2	1
O=C(NCCCO)NC(=S)c1cccc2ccccc12	-30	-0.4	3.8%	-10	10%	-10	0
Cc1cc(F)ccc1C(O)c1ncc(-c2ccc(Cl)cc2)[nH]1 (stereo unspecified)	-11	-2.4	2.5%	-14	/	/	-5
CN1CCN(S(=O)(=O)c2cccc(C(=O)NCCOc3ccccc3)c2)CC1	-18	-4.0	-1.7%	1	/	-2	9
CCOc1ccc(S(=O)(=O)N(C)CC(=O)NCc2ccccn2)cc1	-6	-0.6	1.3%	-1	7%	?	-11
CCC1CCCCN1CCNC(=O)c1[nH]c(C)c(C(C)=O)c1C (stereo unspecified)	-24	-0.7	5.4%	-6	-7%	6	-18

Sorted by number of heavy atoms (highest first): some entries from above.
SMILES	D2 PAM	D2 ag	PINK1 expr mod	Six1-Eya2 inh	Sfp inh	TRPV1 potentiator	CtBP-E1A blk
O=C(NC1CCCCC1)C(c1ccc2ncccc2c1)N(Cc1ccco1)C(=O)c1ccc2c(c1)OCCO2 (stereo unspecified)	8	7.3	0.3%	-6	-1%	-13	-3
C=CCn1c(SCC(=O)Nc2c(C)n(C)n(-c3ccccc3)c2=O)nnc1-c1ccncc1	5	-2.5	0.4%	1	/	/	7
COc1ccc(CN2CCN(C(C)C(=O)NC(C)c3ccc(F)cc3)CC2)cc1F (stereo unspecified)	-4	0.3	-1.6%	-12	-4%	-11	6
CC1(C(=O)NCc2ccccc2Br)CCN1C(=O)C1(c2ccc(Cl)cc2)CC1 (stereo unspecified)	-4	-1.7	-0.8%	5	/	/	5
CCOc1ccc(S(=O)(=O)N(C)CC(=O)NCc2ccccn2)cc1	-6	-0.6	1.3%	-1	7%	?	-11
CCC1CCCCN1CCNC(=O)c1[nH]c(C)c(C(C)=O)c1C (stereo unspecified)	-24	-0.7	5.4%	-6	-7%	6	-18
COC(=O)c1ccc2nc(-c3ccc4c(c3)OCO4)cn2c1	0	-2.8	8.0%	-3	7%	-2	-6

Returning to the listing; the 3 compounds before the break are reprinted first.
SMILES	D2 PAM	D2 ag	PINK1 expr mod	Six1-Eya2 inh	Sfp inh	TRPV1 potentiator	CtBP-E1A blk
CN1CCN(S(=O)(=O)c2cccc(C(=O)NCCOc3ccccc3)c2)CC1	-18	-4.0	-1.7%	1	/	-2	9
CCOc1ccc(S(=O)(=O)N(C)CC(=O)NCc2ccccn2)cc1	-6	-0.6	1.3%	-1	7%	?	-11
CCC1CCCCN1CCNC(=O)c1[nH]c(C)c(C(C)=O)c1C (stereo unspecified)	-24	-0.7	5.4%	-6	-7%	6	-18
COc1ccc2cc(C(=O)NCC3CCCO3)[nH]c2c1 (stereo unspecified)	3	-0.3	1.4%	5	13%	-6	7
Cn1c(=O)c2c(ncn2CC(=O)OCC(=O)Nc2cc(Cl)ccc2C#N)n(C)c1=O	-8	-0.1	4.8%	-7	/	/	-14
CCCCS(=O)(=O)CC(COc1ccccc1)OC(=O)c1ccccc1 (stereo unspecified)	-6	-3.0	0.2%	9	-16%	-12	9
O=C(Nc1ccc(N2CCN(C(=O)c3ccco3)CC2)cc1)c1ccc(Br)cc1	2	1.5	6.6%	3	9%	-2	/
Fc1cccc(CCN2C(=S)NC[C@@H]2CC2CCCCC2)c1	-5	0.5	-0.1%	2	10%	-4	/
O=C1SC(SCc2ccccc2)=N/C1=C\c1ccc(C(=O)O)cc1	-4	-0.4	1.7%	-3	56µM*	-1	23
O=C(O)Cn1c(O)c(C=Nc2ccccc2)sc1=S	22&-4	-2.3&-2.2	-1.0%&-1.7%	11&3	-4%	-21&-5	-3&3

High-throughput results (PubChem BioAssay)
